Bioassay records (PubChem)
RGS16-Gao HTS = RGS16-Galphao interaction regulator (human); O15492+P09471; AID 1441; binding response (% of control), % at 10 µM; bead-based flow cytometry RGS16-Galphao binding, fluorescence; actives lie on both sides; 0.38% of 220,000 active;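 active means below 25% or above 175%, edge rows of some plates excepted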;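 further: Galphao activated by GDP with aluminum fluoride before binding; 100% = wells without compound and 0% = beads without RGS; some results beyond the cut were filed as inactive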
PKD1 inh = inhibitors of human PKD1 kinase. Q15139. PKD1 kinase fluorescence polarization assay. inhibition, %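 (about 10 µM by stock and volumes)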. 0.056% of 200,000 active. AID 797;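 active means inhibition of 50% or more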;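 further: controls were vehicle for no effect and a reference inhibitor for full effect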
Target sequence (Q15139 whole entry, looked up): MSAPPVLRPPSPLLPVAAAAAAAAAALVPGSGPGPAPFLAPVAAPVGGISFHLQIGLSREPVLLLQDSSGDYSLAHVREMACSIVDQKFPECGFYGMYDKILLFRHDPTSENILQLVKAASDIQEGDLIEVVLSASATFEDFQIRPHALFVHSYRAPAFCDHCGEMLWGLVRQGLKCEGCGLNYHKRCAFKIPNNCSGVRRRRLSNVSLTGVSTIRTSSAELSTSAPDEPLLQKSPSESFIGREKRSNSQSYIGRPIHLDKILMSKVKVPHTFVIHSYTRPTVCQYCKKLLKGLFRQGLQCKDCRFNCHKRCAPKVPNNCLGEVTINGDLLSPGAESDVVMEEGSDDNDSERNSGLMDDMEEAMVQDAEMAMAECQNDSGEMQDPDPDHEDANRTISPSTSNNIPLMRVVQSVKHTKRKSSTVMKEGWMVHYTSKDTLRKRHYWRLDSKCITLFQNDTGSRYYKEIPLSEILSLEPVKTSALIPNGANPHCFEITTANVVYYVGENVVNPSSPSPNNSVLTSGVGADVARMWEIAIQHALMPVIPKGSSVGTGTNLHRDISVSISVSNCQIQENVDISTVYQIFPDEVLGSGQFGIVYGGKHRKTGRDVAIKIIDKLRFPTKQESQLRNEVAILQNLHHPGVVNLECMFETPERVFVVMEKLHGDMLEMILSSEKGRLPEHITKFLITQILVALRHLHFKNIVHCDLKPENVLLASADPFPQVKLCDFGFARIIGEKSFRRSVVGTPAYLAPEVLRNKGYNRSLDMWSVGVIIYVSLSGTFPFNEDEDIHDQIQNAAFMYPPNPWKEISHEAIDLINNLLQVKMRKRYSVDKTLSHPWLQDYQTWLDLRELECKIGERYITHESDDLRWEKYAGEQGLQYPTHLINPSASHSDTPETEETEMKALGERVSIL
GALR2 ag = GALR2 (human) receptor agonism | O43603 | GALR2-expressing cells, agonist activation read-out | 0.48% of 140,000 active | activation, %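 (tested at 5 µM)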 | AID 803;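 active means above mean plus 3 SD of all compounds, about 5% in these data, not always enough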;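 further: 0% = vehicle buffer wells and 100% = reference agonist at full effect; tested in CHO reporter cells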
Insulin prom inh = TRM-6 insulin promoter activity inhibition; TRM-6 cells (human fetal islet line), insulin promoter-eGFP reporter, imaging; reporter expression induced with tamoxifen; inhibition, % at 2 µM; 0.9% of 130,000 active; AID 1273;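 active means inhibition above the mean plus 3 SD, with well images judged a real hit on visual review, cut at about 60% in these data, passing the limit was not always enough; inconclusive means inhibition over the cutoff but images rejected on review; inactive means inhibition not above the cutoff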
HSV replic up = HSV replication enhancement. maximum fold increase. 0.005% of 220,000 active. HSV replication augmentation in cells, fold increase;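 active means peak rise of 1.5-fold or more in the series; inconclusive means self-fluorescent or not available for retest; tested in PC3 cells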;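 further: first round at 10 µM; read as green reporter fluorescence; hits show the peak of a series up to 25 µM; 1 = signal of infected wells without compound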
Insulin prom inh cell count = further read-out of Insulin prom inh, marked with its call; normalized cell count, %; measured here: cell count, toxicity; reference of the scale not given here;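 cells exposed to compound for 48 h; stained nuclei by imaging scaled within each plate; lower means fewer cells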
HSV replic up primary fold = second read-out of HSV replic up, no call of its own (marks repeat the call); fold increase; compound at 10 µM; measured here: primary screen fold increase 10 uM; tested in PC3 cells;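 GFP signal in the first replicate; 1 = infected wells without compound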
* hit, by the source's call; i = inactive; ? = inconclusive; nt = no result given.

Short keys – A = RGS16-Gao HTS; B = PKD1 inh; C = GALR2 ag; D = Insulin prom inh; E = Insulin prom inh cell count; F = HSV replic up; G = HSV replic up primary fold
O=C(NCCc1ccccc1Cl)C1CCN(S(=O)(=O)c2cccs2)CC1
  A: 98	B: 12	C: -1.8	D: -7	E: 123	F: i	G: 0.88

Cn1c(=NC(=O)C2CC2)sc2cc(F)cc(F)c21
  A: 91	B: -11	C: -2.8	D: nt	E: nt	F: i	G: 0.77

COc1cccc(OC)c1C(=O)NC(=S)Nc1ccc(N2CCOCC2)c(Cl)c1
  A: 96	B: -1	C: nt	D: nt	E: nt	F: i	G: 0.88

CCCCOC(=O)Nc1nnc(/C=C/c2ccc(OC)cc2)s1
  A: 101	B: -4	C: 2.4	D: 56	E: 170	F: i	G: 0.76

Cc1oc(-c2ccccc2F)nc1CS(=O)(=O)CC(=O)N1CCc2ccccc21
  A: 100	B: -12	C: -1.4	D: -90	E: 93	F: i	G: 0.93

CC(C)CCNC(=O)c1ccc(-c2ccccc2)cc1
  A: 83	B: -4	C: nt	D: nt	E: nt	F: i	G: 0.92

CCC(C)Nc1nc(Cl)nc(NCCOc2ccccc2)n1 (stereo not given)
  A: 107	B: 0	C: -0.3	D: 0	E: 96	F: i	G: 0.95

COc1cccc(C(=O)Nc2nc(-c3ccncc3)cs2)c1
  A: 95	B: -3	C: nt	D: 76*	E: 155*	F: i	G: 0.93

CC(=O)Nc1ccc2nc(NC(=O)COc3ccc(C)cc3)sc2c1
  A: 99	B: 4	C: nt	D: -33	E: 70	F: i	G: 0.95

CN1C(=O)/C(=C/c2cccc(Cl)c2)Sc2ccc(C(=O)NCc3cccnc3)cc21
  A: 94	B: -8	C: nt	D: -60	E: 81	F: i	G: 0.92

COCCN(Cc1cc2cc(C)cc(C)c2nc1Cl)C(=O)Nc1ccccc1
  A: 102	B: 0	C: -0.2	D: -64	E: 71	F: i	G: 0.75

COc1ccccc1NC(=O)CSc1nnc(-c2ccc(C)cc2)o1
  A: nt	B: -1	C: -2.0	D: -23	E: 77	F: i	G: 0.95

CC1=C(C(=O)N2CCOCC2)C(c2c(C)cc(C)cc2C)NC(=S)N1 (stereo not given)
  A: 108	B: 1	C: nt	D: 22	E: 113	F: i	G: 0.87

CC1CCN(S(=O)(=O)c2cccc(C(=O)Nc3nccs3)c2)CC1
  A: 105	B: -6	C: -0.9	D: -26	E: 115	F: i	G: 0.79

Cc1ccc(OC(=O)c2cccc(S(=O)(=O)N(C)C)c2)c(-n2nc3ccccc3n2)c1
  A: 97	B: 4	C: 0.4	D: -48	E: 72	F: i	G: 0.96

CCn1c(CCNC(=O)c2ccc(OC)c(OC)c2)nc2ccccc21
  A: 101	B: -6	C: 0.8	D: 46	E: 78	F: i	G: 0.9

CC(C)C[C@@H](CN(C)N=O)N(C[C@H](Cc1ccccc1)N(CCc1ccccc1)N=O)N=O
  A: 105	B: 1	C: nt	D: nt	E: nt	F: i	G: 1.1

Cc1ccc(C2=NN(S(C)(=O)=O)C(c3cccs3)C2)cc1 (stereo not given)
  A: 102	B: 3	C: -3.3	D: -14	E: 106	F: i	G: 0.97

COc1nnc(-c2ccc(N3CCOCC3)c(NC(C)=O)c2)c2ccccc12
  A: 102	B: -4	C: -1.2	D: nt	E: nt	F: i	G: 0.86

Nc1c(O)ccc2c1C(=O)c1ccccc1C2=O
  A: 100	B: 47	C: 0.1	D: nt	E: nt	F: i	G: 1.1

COc1ccc(S(=O)(=O)N(C)CC(=O)N2CCC(C)CC2)cc1Cl
  A: 98	B: -10	C: 0.3	D: 53	E: 121	F: i	G: 1.1

CC(=O)c1cccc(NC(=O)Nc2ccc(C)cc2)c1
  A: 87	B: -2	C: -1.8	D: 19	E: 133	F: i	G: 0.97

CC(C)C(NC(=O)c1ccccc1)c1nnc(SCC(=O)Nc2nccs2)n1C (stereo not given)
  A: 133	B: 3	C: -1.1	D: -94	E: 45	F: i	G: 1

CC1CCC(C(C)C)C2=C1C(C#N)(C#N)C(C#N)(C#N)C(c1ccccc1)N2 (stereo not given)
  A: 76	B: 4	C: -0.6	D: -27	E: 53	F: i	G: 0.75

CC(=O)NNc1cccc(Cl)n1
  A: 105	B: -1	C: -0.4	D: nt	E: nt	F: nt	G: nt

(next part)
Short keys – A = RGS16-Gao HTS; B = PKD1 inh; C = GALR2 ag; D = Insulin prom inh; E = Insulin prom inh cell count; F = HSV replic up; G = HSV replic up primary fold
O=C(/C=C/c1ccccc1)N/C(=C\c1ccco1)C(=O)NCCO
  A: 92	B: 12	C: -0.7	D: nt	E: nt	F: i	G: 0.79

O=C(CSc1ccccc1C(=O)NCc1ccccc1)NC1CCCCCCC1
  A: 64	B: 9	C: -0.7	D: nt	E: nt	F: i	G: 1.2

C[C@H](NC(=O)c1nc[nH]c1C(=O)N[C@@H](CCCCNC(=O)OC(C)(C)C)C(=O)OC(C)(C)C)c1ccccc1
  A: 105	B: nt	C: nt	D: nt	E: nt	F: i	G: 0.64

COc1cc(C2=NOC(C(=O)Nc3cc(C)on3)C2)cc(OC)c1OC (stereo not given)
  A: 97	B: nt	C: nt	D: nt	E: nt	F: i	G: 1

CCN(CC)S(=O)(=O)c1ccc(Cl)c(NC(=O)COC(=O)c2cc(-c3ccccc3Cl)nc3ccccc23)c1
  A: 105	B: -5	C: 0.3	D: nt	E: nt	F: i	G: 0.85

Cc1cc(/C=N/O)c(C)n1-c1ccc(Br)cc1
  A: 102	B: 8	C: -0.1	D: -12	E: 137	F: i	G: 1.1

Brc1cccc(OCCCCN2CCCCC2)c1
  A: 105	B: -8	C: -1.7	D: 23	E: 91	F: nt	G: nt

CCn1c(CCNC(=O)c2ccc(Cl)cc2Cl)n[nH]c1=S
  A: 101	B: 3	C: -0.6	D: -27	E: 107	F: i	G: 1.2

CC(C)C(=O)Nc1cccc2nsnc12
  A: 103	B: -15	C: -1.4	D: -29	E: 90	F: i	G: 0.88

COCCn1c(=O)[nH]c(=O)c2c(C(F)(F)F)cc(-c3cccs3)nc21
  A: 51	B: 0	C: 3.0	D: nt	E: nt	F: i	G: 0.89

CCNc1nc(NCC)n2c(SCC(=O)N(CC)C3CCCCC3)nnc2n1
  A: 38	B: 6	C: 0.7	D: nt	E: nt	F: i	G: 0.82

COC(=O)Cn1c(=NC(=O)C2CC2)sc2c(C)cc(C)cc21
  A: nt	B: -11	C: -3.4	D: nt	E: nt	F: i	G: 0.77

CC(C)NC(=O)C1CCN(C2CCN(C(=O)c3cc4c(s3)CCCCC4)CC2)CC1
  A: 102	B: -10	C: nt	D: nt	E: nt	F: i	G: 1.1

COC(=O)Nc1ccc([N+](=O)[O-])cc1OC
  A: 100	B: -3	C: -1.0	D: nt	E: nt	F: i	G: 1.1

O=c1c2sccc2[nH]c(=S)n1Cc1ccccc1
  A: 59	B: -4	C: -0.7	D: 36	E: 143	F: i	G: 0.94

CCOC(=O)N1CCC(N(C(=O)Nc2ccc(Cl)c(Cl)c2)C(C)CC)CC1 (stereo not given)
  A: 99	B: -8	C: -0.7	D: 23	E: 135	F: i	G: 0.85

C=CCC(Nc1ccco1)c1ccccc1 (stereo not given)
  A: 98	B: -4	C: -0.6	D: -5	E: 136	F: i	G: 1

COCCN1C(=O)/C(=C/c2ccc(OCc3ccc(C(=O)O)cc3)c(OC)c2)SC1=Nc1ccccc1
  A: 98	B: 18	C: 1.8	D: 17	E: 129	F: i	G: 0.84

COc1ccc(OCC(=O)N2c3ccc(C)cc3C3CN(C)CCC32)cc1 (stereo not given)
  A: 103	B: -7	C: nt	D: -30	E: 128	F: i	G: 0.92

COc1ccccc1C/C(N)=N/OC(=O)c1ccco1
  A: 98	B: -1	C: nt	D: nt	E: nt	F: i	G: 0.95

CC(C)C(=O)NNC(=O)c1cc2sccc2s1
  A: 100	B: nt	C: nt	D: nt	E: nt	F: i	G: 1.1

CCOC(=O)c1c(C)[nH]c(C(=O)Cn2c(=O)c3c(ncn3CC)n(Cc3ccccc3)c2=O)c1C
  A: 104	B: 1	C: -1.1	D: 25	E: 86	F: i	G: 0.96

Nn1c(SCC(=O)Nc2nc3ccccc3s2)nncc1=O
  A: 101	B: -2	C: -1.1	D: -32	E: 95	F: i	G: 0.94

Cc1ccc(C(=O)N2CCN(c3ccccc3)CC2)cc1S(=O)(=O)N1CCCC1
  A: 100	B: -13	C: 0.1	D: nt	E: nt	F: i	G: 0.99

CC(C)N1CCC(N2CCN(C3CCCCC3)CC2CCO)CC1 (stereo not given)
  A: 115	B: 5	C: nt	D: nt	E: nt	F: i	G: 1.1

Going on with the list:
Short keys – A = RGS16-Gao HTS; B = PKD1 inh; C = GALR2 ag; D = Insulin prom inh; E = Insulin prom inh cell count; F = HSV replic up; G = HSV replic up primary fold
O=C(COC(=O)c1ccccc1O)Nc1cccc(S(=O)(=O)NC2=NCCCCC2)c1
  A: 101	B: nt	C: nt	D: nt	E: nt	F: i	G: 1.1

Nc1nnc(SC2CC(=O)N(c3ccccc3)C2=O)s1 (stereo not given)
  A: 81	B: 2	C: -3.4	D: 3	E: 98	F: i	G: 1

CN(c1cccc(Cl)c1)S(=O)(=O)c1cccc(C(=O)Nc2ccc3c(c2)CCC3)c1
  A: 111	B: -13	C: -1.2	D: -17	E: 114	F: i	G: 0.88

CCCN1CCC(NC(=S)Nc2ccc(C(=O)OCC)cc2)CC1
  A: 98	B: 3	C: -0.8	D: nt	E: nt	F: i	G: 0.9

COc1ccc(-c2cn[nH]c2-c2ccc(OCc3ccccc3)cc2O)cc1
  A: 100	B: nt	C: nt	D: nt	E: nt	F: i	G: 0.89

CC(=O)Nc1ccc2nc(NC(=O)c3cccnc3)sc2c1
  A: 99	B: 3	C: nt	D: nt	E: nt	F: i	G: 0.97

CC(C)C(=O)Nc1ccc(NC(=O)c2ccco2)cn1
  A: 68	B: -6	C: -1.3	D: nt	E: nt	F: i	G: 0.99

Cc1ccc(S(=O)(=O)Cc2ccc(C(=O)O)o2)cc1
  A: 101	B: -5	C: -1.3	D: 50	E: 99	F: nt	G: nt

COC(=O)C1=C(C(=O)OC)C(c2cc(Cl)ccc2O)c2sc(=O)[nH]c2S1 (stereo not given)
  A: 93	B: 10	C: 1.5	D: 3	E: 115	F: ?	G: nt

C/C(Cc1nnn(-c2cc(C)on2)n1)=N\O
  A: 96	B: nt	C: nt	D: nt	E: nt	F: i	G: 1.2

COc1ccc(/C=N/NC(=O)CN(C2=NS(=O)(=O)c3ccccc32)c2ccccc2)cc1
  A: 107	B: -13	C: 0.3	D: -26	E: 99	F: i	G: 0.82

S=C(NN=C(C1CC1)C1CC1)Nc1ccccc1
  A: 108	B: -1	C: -3.0	D: -29	E: 107	F: i	G: 0.85

Cc1c(Br)c(C(F)(F)F)nn1CC(=O)NCc1ccco1
  A: 99	B: -6	C: nt	D: nt	E: nt	F: i	G: 0.88

O=C(NCCc1ccccn1)c1cccc(S(=O)(=O)N2CCc3ccccc32)c1
  A: 101	B: -4	C: nt	D: -21	E: 102	F: i	G: 1.1

Cc1cccnc1NC(=O)Cn1nc(C)c([N+](=O)[O-])c1C
  A: 77	B: 0	C: -2.0	D: -36	E: 111	F: i	G: 0.95

N#Cc1cc2c(nc1SCc1ccncc1)CCC2
  A: 113	B: -7	C: -0.4	D: 51	E: 94	F: i	G: 1

CCc1ccccc1N1C(=O)c2cccc3c(N4CCOCC4)c([N+](=O)[O-])cc(c23)C1=O
  A: 98	B: 11	C: 2.8	D: -7	E: 97	F: i	G: 0.92

COc1cc(C2C3C(=O)N(Cc4ccccc4)C(=O)C3ON2c2ccccc2)cc(OC)c1O (stereo not given)
  A: 87	B: -13	C: -1.1	D: 50	E: 120	F: i	G: 1.2

Taken from above.
`Nc1nnc(SC2CC(=O)N(c3ccccc3)C2=O)s1` (stereo not given) @ RGS16-Gao HTS: 81
`CCNc1nc(NCC)n2c(SCC(=O)N(CC)C3CCCCC3)nnc2n1` @ HSV replic up primary fold: 0.82
`Cc1cc(/C=N/O)c(C)n1-c1ccc(Br)cc1` @ GALR2 ag: -0.1
`C/C(Cc1nnn(-c2cc(C)on2)n1)=N\O` @ RGS16-Gao HTS: 96

Two compounds picked at random from those above:
Short keys – A = RGS16-Gao HTS; B = PKD1 inh; C = GALR2 ag; D = Insulin prom inh; E = Insulin prom inh cell count; F = HSV replic up; G = HSV replic up primary fold
Cc1ccc(S(=O)(=O)Cc2ccc(C(=O)O)o2)cc1
  A: 101	B: -5	C: -1.3	D: 50	E: 99	F: nt	G: nt

CC(=O)Nc1ccc2nc(NC(=O)c3cccnc3)sc2c1
  A: 99	B: 3	C: nt	D: nt	E: nt	F: i	G: 0.97

Limited to GALR2 ag and RGS16-Gao HTS, for two of the compounds above:
| mol | GALR2 ag | RGS16-Gao HTS |
| --- | --- | --- |
| O=C(NCCc1ccccn1)c1cccc(S(=O)(=O)N2CCc3ccccc32)c1 | nt | 101 |
| Cc1c(Br)c(C(F)(F)F)nn1CC(=O)NCc1ccco1 | nt | 99 |
